Screening results as filed in PubChem BioAssay.
Vif TR-FRET = HIV-1 Vif–A3G interaction blockers – biochemical, TR-FRET, GST-Vif 1-94, biotin-A3G peptide, dose response retest, primary screen (AID 1117319) | TR-FRET GST-Vif / biotin-A3G peptide binding; higher % means a stronger effect; test concentration not given here; strong numbers were not always called active | one-dose inhibition, %; IC50 in µM for titrated hits | actives 0.57% (n = 260,000);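 active = above the screen mean plus three standard deviations and confirmed in dose response; inconclusive = results disagree or hit not tested in dose response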;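 also: Vif residues 1-94 fused to GST binding biotinylated APOBEC3G peptide 110-148; 0% = full assay without inhibitor and 100% = GST in place of GST-Vif; retest series ran down from 100 µM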
LANA-H2A inh = blocks KSHV LANA binding to histone H2A/H2B; Q9QR71; cell-free LANA-H2A/H2B peptide, fluorescence polarization; inhibition, % (test concentration not listed); actives 0.6% (n = 320,000); in the data active = inhibition mostly above about 10%, no sharp cut-off; inactive = mostly below about 6.7%;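 also: stock transfer was 7.5 nL into about 10 µL; 0% = median of vehicle wells and 100% = median of positive control wells; one replicate is shown; the record names a cut of 25% in any replicate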
E coli growth = inhibitors of Escherichia coli growth; OD600, 23 h; stronger effect = lower value; OD600 absorbance (no concentration beside the values); actives 0.21% (n = 330,000); AID 1053175;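 active = OD600 absorbance below the run mean of sample wells minus 3.6 SD, in any replicate, cut at about 0.56 in these data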;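 also: stock transfer was 300 nL into about 60 µL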
UCH37 DUB inh = human UCH37 deubiquitinating enzyme inhibition. actives 0.33% (n = 330,000). inhibition, % (no concentration beside the values). purified proteasome/UCH37, Ub-AMC cleavage fluorescence. AID 588478;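 active = mean of two replicates above 20%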;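 also: 0% = compound-free wells with enzyme and 100% = wells lacking proteasome; stock transfer was 100 nL into about 20 µL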
Target sequence (Q9Y5K5 whole entry, looked up): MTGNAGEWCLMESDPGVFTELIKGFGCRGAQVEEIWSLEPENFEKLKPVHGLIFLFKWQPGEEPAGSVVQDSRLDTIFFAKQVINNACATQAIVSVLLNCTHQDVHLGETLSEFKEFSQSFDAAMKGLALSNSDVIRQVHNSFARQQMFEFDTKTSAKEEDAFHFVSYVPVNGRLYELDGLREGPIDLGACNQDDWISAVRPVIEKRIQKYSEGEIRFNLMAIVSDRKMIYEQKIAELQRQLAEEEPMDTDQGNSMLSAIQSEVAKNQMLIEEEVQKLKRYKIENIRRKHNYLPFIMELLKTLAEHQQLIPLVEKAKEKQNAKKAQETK
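Material: Human UCH37 enzyme supplied as purified proteasome complex | Schedule: 30 min preincubation with enzyme, 25 min cleavage at room temperature | Detection: AMC fluorescence 355/460 nm | Measure: % inhibition of Ub-AMC cleavage fluorescence | Controls: Wells without proteasome as full block, compound-free enzyme plus substrate as uninhibited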
A1 inh = inhibitors of the anti-apoptotic protein A1, read as caspase activation | MEF A1-2A-BIM cells, Caspase-Glo 3/7 luminescence, 3 h; percent of clofoctol response, vehicle zero | caspase activation, % (no concentration beside the values) | actives 0.066% (n = 330,000);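 active = over half of replicate activation scores above 10%, or exactly half above 10 with the replicate mean above 10; inconclusive = replicate mean below 10 yet half the replicates above 10; inactive = over half of replicates below 10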;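 also: wells of about 30 µL received 50 nL stock; many hits fall short of the cut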
Beta2AR agonist = human beta-2 adrenergic receptor agonism by FAP; response, % (no concentration beside the values); actives 0.43% (n = 340,000); Am2.2-beta2AR cells, FAP receptor internalization, flow cytometry; reference of the scale not given here;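 active = response above a set limit, near 3 SD of response in nonfluorescent compounds, cut at about 42% in these data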;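 also: stock transfer was 100 nL into about 11 µL; a reference agonist was the positive control; negative values mostly stem from fluorescent compounds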
HNF4A DNA FP = change in binding of human HNF4 alpha to DNA; P41235; HNF4a-FITC DNA binding, fluorescence polarization, 1 h; activity change, % at 10 µM; actives 0.3% (n = 360,000); AID 1224865; in the data active = activity change above about 30%, passing the limit was not always enough;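 also: controls were the assay level and a saturating level of protein; the project sought stronger binding though the title names inhibitors; some compounds called inactive have numbers as strong as hits; positive values seem to mean higher polarization but the record does not say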
Target sequence (P41235 whole entry, looked up): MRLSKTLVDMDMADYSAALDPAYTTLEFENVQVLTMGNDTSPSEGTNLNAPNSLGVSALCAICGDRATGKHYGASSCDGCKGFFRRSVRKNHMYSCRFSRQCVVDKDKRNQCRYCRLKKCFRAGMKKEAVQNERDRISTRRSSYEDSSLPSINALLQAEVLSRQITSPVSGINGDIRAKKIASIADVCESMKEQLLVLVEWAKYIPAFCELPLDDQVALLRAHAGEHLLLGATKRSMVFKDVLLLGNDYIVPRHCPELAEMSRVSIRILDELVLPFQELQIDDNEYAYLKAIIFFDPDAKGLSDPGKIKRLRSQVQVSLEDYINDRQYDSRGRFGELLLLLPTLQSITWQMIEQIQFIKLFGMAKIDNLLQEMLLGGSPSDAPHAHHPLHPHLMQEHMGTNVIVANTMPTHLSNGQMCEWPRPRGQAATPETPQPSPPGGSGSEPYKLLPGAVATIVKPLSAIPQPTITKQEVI
The depositor's hits bear a star; ? = inconclusive; . = not tested or not shown. Not a hit list; about 2.1% have a hit in one of these screens.

Structure	Vif TR-FRET	LANA-H2A inh	E coli growth	UCH37 DUB inh	A1 inh	Beta2AR agonist	HNF4A DNA FP
NNC(=O)c1cc2cc(Oc3ccccc3)ccc2[nH]1	.	-1.4	0.7	-26	0.6	2	-7.0
CN(C)CC1CCC/C(=C\c2ccc(OC(=O)/C=C/c3ccccc3)cc2)C1=O (stereo unspecified)	-1%	.	.	.	.	-29	2.4
CC(C)(C)OC(=O)NCCCCCNC(=O)c1nc[nH]c1C(=O)NCC(=O)OCc1ccccc1	.	-1.4	0.69	1.3	-1.2	21	4.0
CCOC(=O)N1CCN(C(=O)C2CC(c3cc(OC)ccc3OC)=NO2)CC1 (stereo unspecified)	2%	0.7	0.66	-4.4	-0.5	0	3.0
COc1ccc(OCC(=O)NC(=S)NNC(=O)COc2ccc(Br)cc2Cl)cc1	.	-9.0	0.68	-1.2	-0.2	15	0.2
Cc1ccccc1CSc1nnc(-c2ccncc2)o1	1%	1.7	0.68	2.5	2.2	-2	1.9
N#Cc1ccc(N2C(=O)[C@@H]3C(C(=O)c4cnccn4)=NN[C@@H]3C2=O)cc1	.	-5.7	0.66	7.9	0.3	6	0.2
C1CC(CN2CCOCC2)CN(c2nc3nonc3nc2N2CCSCC2)C1 (stereo unspecified)	.	4.5	0.68	10	1.2	-7	3.4
Cc1[nH]nc2c1C(c1cc(Br)cs1)C(C#N)=C(N)O2 (stereo unspecified)	.	4.2	0.65	5.1	0.9	22	1.9
Cc1nc(CCNC(=O)Cc2ccccc2)cs1	1%	0.8	0.71	3.3	1.3	6	0.9
O=C(c1ccc(Cl)cc1)N1N=CCC1(O)c1ccc(Cl)cc1 (stereo unspecified)	.	-9.3	0.64	1.6	1.1	7	0.9
CC(C)(C)NC(=O)C(=O)NN=C1CCCCCC1	6%	-3.5	0.72	1.6	0.6	3	3.9
CCS(=O)(=O)N1CCC(C(=O)N2CCOCC2)CC1	-2%	-2.2	0.6	0.9	0.3	8	4.8
Cc1cccc(NC(=O)Cn2cc(C(=O)c3ccco3)c3ccccc32)c1	-2%	0.9	0.67	2.6	0.3	-11	2.2
O=C(Nc1ncccc1O)c1cc2ccccc2o1	13%	-3.9	0.63	3.5	-7.5	-1	20
NS(=O)(=O)c1ccc(NC(=O)COC(=O)CCc2nc3ccccc3c(=O)[nH]2)cc1	-7%	-1.3	0.68	4.9	0.3	5	1.5
O=C(N=Nc1c(O)[nH]c2ccccc12)c1cccs1	2%	1.3	0.65	6.5	-6.3	-11	1.7
Cc1ccc(N2C(=O)C(Cl)=C(N3CCCCCC3)C2=O)c(C)c1	0%	2.1	0.71	2.2	-0.6	-5	1.6
Cc1nnc(SCC(=O)c2ccc(Cl)cc2)s1	2%	-0.6	0.67	1.2	1.0	-3	1.0
COc1ccc(/C(O)=C2/C(=O)C(=O)N(CCCN3CCOCC3)C2c2ccc(C(C)C)cc2)cc1 (stereo unspecified)	.	-0.9	0.7	20*	0.0	-3	2.9
COC(=O)Nc1ccc(S(=O)(=O)N2CCCc3cccc(O)c32)cc1	3%	-2.0	0.72	2.0	0.9	52*	4.2
CCN(CC)CCC=C(c1cccs1)c1cccs1	-3%	.	0.67	3.7	.	12	0.8
Cc1cc(NC(=O)CCCn2nc([N+](=O)[O-])c(Br)c2C)no1	-4%	-0.1	0.69	4.7	0.3	-16	1.9
COCCN(C(=O)C(F)(F)F)C(C(=O)NC1CCCCC1)c1ccco1 (stereo unspecified)	-3%	-0.9	0.71	1.2	0.6	0	3.1
c1ccc(-c2csc(N3CCCCCC3)n2)cc1	19%	2.7	0.73	4.5	0.4	3	-5.2
COCCNC(=O)c1cn(C(C)c2ccccc2F)nn1 (stereo unspecified)	5%	-3.0	0.66	0.3	0.3	.	.
CC(=O)COC(=O)C1CCN(S(=O)(=O)c2cc([N+](=O)[O-])ccc2Cl)CC1	.	1.6	0.69	2.2	-0.7	11	-15
N#Cc1c(N)nc2c(c1N)CC(=O)N2c1ccc(Cl)cc1	2%	1.5	0.58	3.3	0.1	-10	6.3
COc1ccc(-c2[nH]ncc2CN2CCN(Cc3cccs3)CC2)c(F)c1	-1%	2.0	0.73	2.3	-0.4	-10	-6.6
COc1ccc(/C=N/NC(=O)CCn2c3ccccc3c3ccccc32)cc1O	7%	-16	.	.	-0.5	28	-2.1
CN(C)c1ccc(C(=S)N2CCN(C(=S)Nc3ccccc3)CC2)cc1	16%	-13	0.66	1.3	0.4	-6	0.6
COc1cccc(CNC(=O)COC(=O)CCc2cc(OC)c(OC)c(OC)c2)c1	-11%	-4.0	0.7	0.5	-0.4	-2	-4.3
CCOCCCNC(=O)C1CCCN(S(=O)(=O)c2cccc3nsnc23)C1 (stereo unspecified)	.	-0.1	.	.	0.2	-4	-1.1
Cc1csc(CN(C)C(=O)CC2C(=O)NCCN2CC(C)(C)C)n1 (stereo unspecified)	15%	-4.6	0.67	-8.8	0.6	2	-2.2
Cc1ccc(NC(=O)C2CC(=O)N(C(C)C)C2)cc1C (stereo unspecified)	.	14	0.64	4.6	?	3	0.2
CC1=NN(S(=O)(=O)c2ccc(Cl)cc2Cl)C(=O)c2ccccc2O1	5%	-0.1	0.7	2.2	0.3	-8	-2.0
Cc1cc(C(=O)CSc2nnnn2C)c(C)n1Cc1ccco1	23%	-5.1	0.71	1.1	0.2	0	-1.7
Cc1csc(CNC(=O)c2cc(COc3c(C)cccc3C)on2)n1	5%	2.9	0.68	-2.5	-0.4	-2	3.0
COC(=O)c1ccc(C(=O)Nc2nc3cc(N)c(C)cc3s2)cc1	-3%	2.9	0.68	3.7	-0.3	-8	8.3
COc1ccc(S(=O)(=O)N2CCOC2CNC(=O)C(=O)NCCc2ccccc2OC)cc1 (stereo unspecified)	.	-2.4	0.8	4.4	0.3	-12	0.2
CC(C)CCN1CN(S(=O)(=O)c2cccs2)c2nc3ccccc3nc21	4%	-0.4	0.73	-0.3	0.0	4	3.0
O=C(c1cccc(C(F)(F)F)c1)N1CCC(O)(CS(=O)(=O)Cc2ccccc2Cl)CC1	19%	0.3	0.73	1.7	0.1	5	-2.3
Cc1ccc(OCC(=O)Nc2cc(S(=O)(=O)N3CCCCC3)ccc2N2CCN(C)CC2)c(C)c1	6%	-4.4	0.67	4.2	0.1	15	-1.4
COCC(=O)N(Cc1cc2cc(C)ccc2[nH]c1=O)c1ccccc1	.	5.2	0.72	-13	?	-4	1.1
CC1=CC(C)(C)N(C(=O)CSc2nnc(C)s2)c2ccc(C)cc21	?	3.1	0.66	0.8	-0.1	3	-3.2
C=C(C)c1cccc(C(C)(C)NC(=O)N2CCCC2)c1	.	0.1	0.73	-2.3	-0.4	2	-0.7
CC1CCCCC1NC(=O)C1CCN(S(=O)(=O)c2ccc(-n3cnnn3)cc2)CC1 (stereo unspecified)	-2%	-0.2	0.77	0.9	1.2	0	-3.8
CCOC(=O)c1c(NC(=O)C2COc3ccccc3O2)sc(C)c1C (stereo unspecified)	-9%	6.0	0.7	-1.5	-0.7	0	-1.1
CC(=O)Nc1ccc2ccccc2c1[N+](=O)[O-]	1%	.	0.68	0.4	.	-6	0.2
Cc1cc(Br)cc(Br)c1OCC(=O)NNC(=O)CCC(=O)NCc1ccccc1	.	2.8	0.72	5.5	0.3	-5	3.0

(more compounds)
Structure	Vif TR-FRET	LANA-H2A inh	E coli growth	UCH37 DUB inh	A1 inh	Beta2AR agonist	HNF4A DNA FP
Cc1ccc(NC(=O)CN2C(=O)S/C(=C\c3cc(C)n(C)c3C)C2=O)cc1	24%	-0.3	0.68	-28	-0.7	-3	3.3
O=C(O)c1nn2c(C(F)(F)F)cc(-c3cccs3)nc2c1Cl	.	-4.8	0.7	8.0	0.4	20	3.4
Nc1cccc2c1C(=O)N(CCOc1ccc(F)cc1)C2=O	.	0.9	0.7	-125	-4.5	-4	-1.1
CCC(C)C(NC(=O)OC(C)(C)C)C(=O)NCc1ccco1 (stereo unspecified)	4%	1.6	0.76	3.2	0.3	-4	-1.3
O=C(O)c1ccc(/C=N/NC(=S)NCCN2CCOCC2)cc1	.	-3.3	.	.	-0.9	-2	-4.5
Cc1ccc(S(=O)(=O)Nc2ccc(N3CCOCC3)nc2)cc1	.	2.3	0.66	-6.2	0.7	-1	-3.6
COc1ccc(-n2c(=O)c3c(C)c(C)sc3n(Cc3ccc(F)cc3)c2=O)c(OC)c1	-2%	3.9	0.65	4.5	-0.4	-5	-0.2
COc1ccc(S(=O)(=O)NCC2CCCN(C(=O)CSC)C2)cc1 (stereo unspecified)	.	-1.6	0.67	4.5	0.3	-2	-2.3
Cc1ccccc1NC(=S)N1CCN(c2ccccc2Cl)CC1	.	4.9	0.64	3.1	0.9	8	1.4
O=c1[nH]c2ccc(NC(=S)NCCc3ccccc3)cc2[nH]1	5%	1.9	0.67	1.4	1.0	-6	-0.4
COc1ccc(CCNC(=O)C(=O)NCCCN2CCOCC2)cc1	.	1.0	0.72	1.9	-1.2	-2	-1.9
Cc1cc(OCC(=O)OCC(=O)N2CCc3ccccc3C2)ccc1Cl	2%	2.1	0.71	3.8	-0.7	0	10
O=C(c1ccco1)N1CCCC(c2ccccc2)C1 (stereo unspecified)	3%	-4.1	0.66	3.4	0.5	1	1.5

Single records (already shown):
`O=C(O)c1ccc(/C=N/NC(=S)NCCN2CCOCC2)cc1` is listed as Vif TR-FRET: .; LANA-H2A inh: -3.3; E coli growth: .; UCH37 DUB inh: .; A1 inh: -0.9; Beta2AR agonist: -2; HNF4A DNA FP: -4.5
`Cc1ccccc1NC(=S)N1CCN(c2ccccc2Cl)CC1` is listed as Vif TR-FRET: .; LANA-H2A inh: 4.9; E coli growth: 0.64; UCH37 DUB inh: 3.1; A1 inh: 0.9; Beta2AR agonist: 8; HNF4A DNA FP: 1.4
